Screening data (PubChem)
gsp antag: antagonizes gsp, the McCune-Albright syndrome mutation. actives 0.4% (n = 340,000). gsp-mutant cells, cAMP HTRF, 30 min; control for the full effect not named in the record. Potency, µM (highest dose often 76.9 µM), for the others: top-dose activity change, negative = inhibition, most hits filed as inhibitors; active = falling curve of any shape with a large fitted effect; inconclusive = falling curve, mostly with a smaller effect; inactive = flat or rising curve; cell line not stated here;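 further: intracellular cAMP measured with PDE inhibitor Ro 20-1724 present during compound exposure; potency means the concentration at half of the fitted maximal effect; on the % scale 0 is the no-effect control and ±100 the full control effect; nearly all actives have a fitted effect of over 65% in size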
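HTRF cAMP read-out (cAMP-d2 plus anti-cAMP antibody-K in lysis buffer, 30 min RT). Before lysis, cells are exposed to compounds with […] for 30 min at 37C in DPBS containing Ca/Mg, BSA and Tween 20.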
D2 potentiator: potentiates the human D2 dopamine receptor allosterically; actives 0.23% (n = 360,000); DiscoveRx D2 beta-arrestin cells, luminescence, 90 min; 100% = 57 uM dopamine signal; AID 624464; potentiation, % (no concentration beside the values); active = potentiation of 50% or more; inconclusive = 30% to 50%; inactive = 30% or less;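 further: compound concentration not given in the record; tested on top of an EC20 dose of dopamine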
Target sequence (P14416 whole entry, looked up): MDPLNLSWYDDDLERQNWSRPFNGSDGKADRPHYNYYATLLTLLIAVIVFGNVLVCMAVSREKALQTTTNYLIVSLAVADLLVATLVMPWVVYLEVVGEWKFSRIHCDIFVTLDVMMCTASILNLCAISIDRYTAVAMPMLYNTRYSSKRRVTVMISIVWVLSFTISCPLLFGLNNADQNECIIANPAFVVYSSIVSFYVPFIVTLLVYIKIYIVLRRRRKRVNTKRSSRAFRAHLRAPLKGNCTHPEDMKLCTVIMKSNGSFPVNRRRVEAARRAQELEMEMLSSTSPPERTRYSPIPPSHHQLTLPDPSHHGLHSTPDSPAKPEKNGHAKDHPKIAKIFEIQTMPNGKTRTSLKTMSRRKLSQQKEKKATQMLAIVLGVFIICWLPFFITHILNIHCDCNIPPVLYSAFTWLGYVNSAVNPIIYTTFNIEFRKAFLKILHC
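PathHunter D2 cells, attached overnight at 37 deg C, received compound in DMSO plus dopamine at EC20 (50 nM final) for 90 min at 37 deg C. Beta-arrestin recruitment was read as luminescence after 1 h with detection reagent at ambient temperature.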
ClpP mod: qHTS Assay for Activators of ClpP; purified B. subtilis ClpP, FRET peptide cleavage, 20 min; Potency, µM (titrated, usually from 57.5 µM), without a hit: at the highest dose activity change, negative = active; actives 1.9% (n = 340,000); AID 651965, 2013; active = well fitted falling curve with a large enough effect; inconclusive = small, poorly fitted or top-dose-only effect; inactive = no such curve, though single readings can be large or run the other way; further: potency means the concentration at half of the fitted maximal effect; the source files actives as falling curves though it sought activators and does not explain the sign; nearly all actives have a fitted effect of over 65% in size; many hits overshoot -100%
Target sequence (P80244 whole entry, looked up): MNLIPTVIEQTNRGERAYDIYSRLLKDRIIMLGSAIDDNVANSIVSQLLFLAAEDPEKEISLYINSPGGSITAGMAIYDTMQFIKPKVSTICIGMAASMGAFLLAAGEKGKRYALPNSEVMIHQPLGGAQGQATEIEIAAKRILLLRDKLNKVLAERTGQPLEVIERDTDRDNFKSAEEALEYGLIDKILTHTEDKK
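Buffer: 100 mM Tris/HCl pH8, 100 mM KCl, 0.05% low protease BSA, 2.5% glycerol, 0.01% Tween-20. ClpP 10 microg/mL final; 20 min RT; delta FRET normalized to ADEP and DMSO controls.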
* = called active by the depositor; ? = inconclusive; . = not tested or not shown. Only part of the results is shown; the hit share may differ from the screen's.

SMILES	gsp antag	D2 potentiator	ClpP mod
CC(C)NC(=O)Nc1ccc2c(c1)C(=O)N([C@H](C)CO)C[C@H](C)[C@@H](CN(C)C(=O)Nc1ccc(C(F)(F)F)cc1)O2	4.9%	.	-1.1%
COc1ccc2[nH]cc(CCNC(=O)Cn3cc(C)c(=O)[nH]c3=O)c2c1	0.4%	.	0.0%
Cc1ccccc1S(=O)(=O)N1C[C@H]2CON(C)[C@H]2C[C@H]1c1cccc(Br)c1	-7.6%	.	2.7%
CCN(C[C@H]1N[C@@](C)(C(=O)OC)[C@H]2C(=O)N(Cc3ccccc3)C(=O)[C@@H]12)C(=O)Nc1ccc(C)cc1	2.3%	.	-2.3%
Cc1cn(CC(=O)N[C@H](CO)Cc2c[nH]c3ccccc23)c(=O)[nH]c1=O	1.4%	.	-0.9%
CC(C)N(C(=O)[C@H]1C[C@H](CC(=O)NCCCn2ccnc2)C(=O)N2CCc3c([nH]c4ccc(Cl)cc34)[C@]12C)C(C)C	-0.3%	.	1.2%
COc1ccc2[nH]c3c(c2c1)CCN1C(=O)C(CC(=O)NCc2cccc(C(F)(F)F)c2)C[C@H](C(=O)N(C(C)C)C(C)C)[C@@]31C (some centres undefined)	?	.	-5.5%
CCN(CC)C(=O)[C@H]1C[C@H](CC(=O)NCc2cccc(C(F)(F)F)c2)C(=O)N2CCc3c([nH]c4ccc(Cl)cc34)[C@]12C	-16.0%	.	-2.1%
O=C(NCCc1ccccc1)c1cccc(NC(=O)C2CCCCC2)c1	3.0%	.	3.2%
Cc1ccccc1C(=O)N1CCC2CC1c1cc(Cl)ccc12 (centres undefined)	-5.9%	.	-0.9%
O=S(=O)(NCc1ccccc1)c1ccccc1NCc1ccc(Cl)cc1	-2.4%	.	?
COc1ccc(-c2sc3cc(OC)c(OC)cc3c2C#CCO)cc1	-18.0%	.	4.2%
Cc1ccc(C(=O)NC(Cc2cccc(C(F)(F)F)c2)C(=O)O)cc1 (centres undefined)	7.2%	.	-0.9%
Cn1c(-c2ccc(C#N)cc2)c(C#Cc2ccccc2)c2ccccc21	7.9%	.	4.7%
CC(C)N(C(=O)[C@H]1CC(CC(=O)NC(C)(C)C)C(=O)N2CCc3c([nH]c4ccccc34)[C@]12C)C(C)C (some centres undefined)	5.0%	.	-2.8%
CON(C)C(=O)CC(CN(Cc1ccccc1)C(=O)OC(C)(C)C)c1ccc(Cl)cc1 (centres undefined)	-22.8%	.	0.6%
CN(Cc1ccccc1)S(=O)(=O)c1ccccc1Br	-6.6%	.	-2.2%
COc1ccccc1-c1cccc([C@@H]2C[C@H]3[C@H](CON3C)CN2S(=O)(=O)c2ccccc2C)c1	-27.4%	.	1.6%
CN(C(=O)c1cccc(NC(=O)Cc2ccc(NC(=O)C3CCN(C(=O)CCc4ccccc4)CC3)cc2)c1)C1CCC1	-10.2%	.	2.0%
CCOC(=O)C1=CN(Cc2ccco2)S(=O)(=O)N(CC)C1c1ccccc1 (centres undefined)	2.8%	.	-1.9%
CC(C)=CCC/C(C)=C/CNC(=O)C[C@H]1C[C@H](C(=O)N2CCCCC2)[C@@]2(CCc3ccccc3)c3[nH]c4ccc(Cl)cc4c3CCN2C1=O	3.5%	.	0.8%
C#CCOCCOCCOCCNc1nc(N2CCN(C(=O)[C@H](CCC(=O)O)n3cc([C@@H](N)[C@H](C)CC)nn3)CC2)nc(N2CCN(C(=O)[C@H](CCCCN)n3cc([C@@H](N)CC(N)=O)nn3)CC2)n1	1.7%	.	1.3%
O=C1[C@H](c2ccccc2)[C@@H](c2ccccc2)N1c1ccncc1	?	.	1.8%
CCCCNS(=O)(=O)CCNCc1ccc(OC)cc1	13.5%	.	1.0%
Cc1cc(C)c(CN2CCN(C(=O)Cn3cnc(C(=O)Nc4ccc(C)c(C)c4)n3)CC2)c(C)c1	9.6%	.	6.0%
CCCN1C(C)C(C(=O)OCC)=CN(Cc2ccc(Br)cc2)S1(=O)=O (centres undefined)	-5.1%	.	2.0%
C[C@H](CO)N1C[C@H](C)[C@@H](CN(C)Cc2ccncc2)Oc2c(NS(=O)(=O)c3ccc(Cl)cc3)cccc2C1=O	-8.3%	.	-2.4%
CC(C)N(C(=O)[C@H]1CC(CC(=O)NCCCn2ccnc2)C(=O)N2CCc3c([nH]c4ccccc34)[C@]12C)C(C)C (some centres undefined)	-0.2%	.	-3.2%
CCOC(=O)C1=CN(Cc2cccc(Br)c2)S(=O)(=O)N(C)C1C (centres undefined)	-1.8%	.	-0.2%
CCCCC[C@@H]1C=C(C(=O)O)[C@H](c2ccc(F)cc2)N1S(=O)(=O)c1ccc(C)cc1	-12.0%	.	1.5%
CCOC(=O)c1ccc(N[C@@H]2CCN3C(=O)c4ccccc4[C@@H]3C[C@H]2O)cc1	-10.7%	.	-9.4%
C#CCOCCOCCOCCNc1nc(N2CCN(C(=O)[C@H](CO)n3cc([C@@H](N)C(C)C)nn3)CC2)nc(N2CCN(C(=O)[C@H](CCC(=O)O)n3cc([C@@H](N)CCCCN)nn3)CC2)n1	8.8%	.	3.5%
NC(=O)c1ncn([C@@H]2O[C@H](CNCc3cc(Cl)ccc3OCc3ccc(Cl)cc3)[C@@H](O)[C@H]2O)n1	2.3%	.	-1.4%
CN(C(=O)c1ccc(NC(=O)Cc2cccc(NC(=O)C3CCN(C(=O)C4CCC4)CC3)c2)cc1)C1CC1	6.6%	.	2.2%
C1=C[C@H]2CC[C@@H]1N(c1ccccc1)O2	-10.6%	.	0.6%
C[C@@H]1CC[C@]2(C(=O)O[C@@H]3O[C@H](CO)[C@@H](O)[C@H](O)[C@H]3O)CC[C@]3(C)C(=CCC4[C@@]5(C)C[C@@H](O)[C@H](O)[C@@](C)(C(=O)O[C@@H]6[C@H](O)C[C@@]7(C)C(CC[C@]8(C)C7CC=C7[C@H]9[C@](C(=O)O[C@@H]%10O[C@H](CO)[C@@H](O)[C@H](O)[C@H]%10O)(CC[C@@H](C)[C@@]9(C)O)CC[C@]78C)[C@@]6(CO)C(=O)O)C5CC[C@]43C)[C@@H]2[C@]1(C)O (some centres undefined)	3.0%	.	-1.5%
CN1OC[C@@H]2CN(C(=O)CCc3ccccc3)[C@H](c3cccc(-c4ccc(C#N)cc4)c3)C[C@@H]21	-21.2%	.	1.5%
COc1cc([C@@H]2CC=C(C(=O)O)[C@H](c3ccc(C)cc3)N2S(=O)(=O)c2ccc(C)cc2)cc(OC)c1OC	-6.6%	.	0.8%
C[C@H](CO)N1C[C@H](C)[C@@H](CN(C)Cc2ccc3c(c2)OCO3)Oc2c(NS(C)(=O)=O)cccc2C1=O	-5.9%	.	-14.5%
COc1ccc(B(O)O)c(CN2CCN(C(=O)OC(C)(C)C)CC2)c1	6.7%	.	-1.9%
CCN(CC)C(=O)[C@H]1CC(CC(=O)NCC23CC4CC(CC(C4)C2)C3)C(=O)N2CCc3c([nH]c4ccc(OC)cc34)[C@]12C (some centres undefined)	-25.9%	.	-0.5%
COc1ccc2sc(-c3ccccc3OC)c(C#Cc3cncn3C)c2c1	?	.	4.9%
Cc1ccc(NC(=O)c2ncn(CCCNCc3ccccn3)n2)cc1C	3.7%	.	-4.8%
COC(=O)c1ccc2c(c1C(=O)OC)CN(S(=O)(=O)C(C)(C)C)[C@H]2CCO	2.1%	.	1.4%
COC(=O)c1ccc(CNC(=O)Cn2cc(C)c(=O)[nH]c2=O)cc1	7.6%	.	0.9%
Cc1ccc(S(=O)(=O)N2[C@@H](c3ccc(C(C)(C)C)cc3)C(C(=O)O)=CC[C@H]2c2ccc3c(c2)OCO3)cc1	-20.3%	.	2.6%
CC(C)N(C(=O)[C@H]1C[C@H](CC(=O)NCCC2=CCCCC2)C(=O)N2CCc3c([nH]c4cc(CCC(=O)N(C)C)ccc34)[C@]12C)C(C)C	-21.2%	.	-2.6%
C[C@H]1CN(S(=O)(=O)C(C)(C)C)[C@H](CCO)/C1=C\c1ccccc1	5.0%	.	-3.2%
O=C(C[C@H]1C/C=C\CC[C@H](Cc2ccc(F)cc2)C(=O)O[C@H](c2ccccc2)CNC1=O)N[C@H](CO)Cc1ccccc1	?	.	-0.5%
CCOC(=O)C1=C(C)N(C[C@@H]2CC[C@@H](Cc3ccc(-c4ccccc4)cc3)O2)C(=O)NC1c1ccc(SCc2ccco2)c([N+](=O)[O-])c1 (some centres undefined)	-6.1%	.	-0.5%
Cc1ccccc1C(=O)N1CCC2CC1c1cc(-c3ccc(F)cc3)ccc12 (centres undefined)	?	.	0.5%
CCOC(=O)C1=CN(Cc2cccc(F)c2)S(=O)(=O)N(C)C1CCc1ccccc1 (centres undefined)	-1.3%	.	-1.4%
CC(C)(C)S(=O)N1Cc2cc(CO)ccc2[C@@H]1CCO (some centres undefined)	15.3%	.	0.6%
Cc1ccc(S(=O)(=O)Nc2ccc3c(c2)C(=O)N([C@H](C)CO)C[C@H](C)[C@@H](CN(C)C(=O)Nc2ccc(C(F)(F)F)cc2)O3)cc1	-12.3%	.	-0.4%
CCN(C[C@H]1N[C@@](C)(C(=O)OC)[C@H]2C(=O)N(C)C(=O)[C@@H]12)C(=O)Nc1ccc(Cl)cc1	0.3%	.	0.5%
COc1ccc(S(=O)(=O)Nc2cccc3c2O[C@H](CN(C)C(=O)NC2CCCCC2)[C@@H](C)CN([C@H](C)CO)C3=O)cc1	-3.7%	.	1.3%
CO[C@H]1CC[C@@]2(C)[C@@H](CC[C@@H]3[C@@H]2CC[C@@]2(C)[C@H]3C[C@H](C(=O)O)O[C@]23CCCO3)C1	-24.8%	.	-1.5%
CCN(CC)C(=O)[C@H]1CC(CC(=O)NCc2cccc(C(F)(F)F)c2)C(=O)N2CCc3c([nH]c4ccccc34)[C@]12C (some centres undefined)	-11.4%	.	3.6%
C=C(CCO)C1=CCN(S(=O)C(C)(C)C)[C@@H]1CCO (some centres undefined)	5.8%	.	-4.2%
COc1ccc(NC(=O)Nc2ccc3c(c2)C(=O)N([C@H](C)CO)C[C@H](C)[C@@H](CN(C)C(=O)Nc2ccccc2)O3)cc1	4.7%	.	-1.0%
CC(C)(C)S(=O)(=O)N1Cc2ccc(CO)cc2[C@@H]1CCO	11.0%	.	1.2%
Cc1cc(C)cc(Cn2c3ccc(NC(=O)NCc4ccc(F)cc4)cc3c(=O)n2C)c1	.	8.5	4.2%

Compounds from the list above with a Cl atom (nine):
SMILES	gsp antag	D2 potentiator	ClpP mod
CC(C)N(C(=O)[C@H]1C[C@H](CC(=O)NCCCn2ccnc2)C(=O)N2CCc3c([nH]c4ccc(Cl)cc34)[C@]12C)C(C)C	-0.3%	.	1.2%
CCN(CC)C(=O)[C@H]1C[C@H](CC(=O)NCc2cccc(C(F)(F)F)c2)C(=O)N2CCc3c([nH]c4ccc(Cl)cc34)[C@]12C	-16.0%	.	-2.1%
Cc1ccccc1C(=O)N1CCC2CC1c1cc(Cl)ccc12 (centres undefined)	-5.9%	.	-0.9%
O=S(=O)(NCc1ccccc1)c1ccccc1NCc1ccc(Cl)cc1	-2.4%	.	?
CON(C)C(=O)CC(CN(Cc1ccccc1)C(=O)OC(C)(C)C)c1ccc(Cl)cc1 (centres undefined)	-22.8%	.	0.6%
CC(C)=CCC/C(C)=C/CNC(=O)C[C@H]1C[C@H](C(=O)N2CCCCC2)[C@@]2(CCc3ccccc3)c3[nH]c4ccc(Cl)cc4c3CCN2C1=O	3.5%	.	0.8%
C[C@H](CO)N1C[C@H](C)[C@@H](CN(C)Cc2ccncc2)Oc2c(NS(=O)(=O)c3ccc(Cl)cc3)cccc2C1=O	-8.3%	.	-2.4%
NC(=O)c1ncn([C@@H]2O[C@H](CNCc3cc(Cl)ccc3OCc3ccc(Cl)cc3)[C@@H](O)[C@H]2O)n1	2.3%	.	-1.4%
CCN(C[C@H]1N[C@@](C)(C(=O)OC)[C@H]2C(=O)N(C)C(=O)[C@@H]12)C(=O)Nc1ccc(Cl)cc1	0.3%	.	0.5%
